# Screening data as filed in PubChem BioAssay.
# GLA inh pH 4.5 – blocks human alpha-galactosidase A at pH 4.5; 230,000 tested, under 10 active; AID 1467; activity change, negative = inhibition, % at 105 µM; purified enzyme, 4-MU-alpha-Gal fluorescence, pH 4.5; P06280; inconclusive = small, poorly fitted or top-dose-only inhibition, or a rising curve; inactive = flat fitted curve, though single readings scatter; no compound was filed as active;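 note: 0% = full activity with enzyme and -100% = basal without enzyme; dose as in the result columns while the protocol names 77 µM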
# Rango release inh – inhibition of RanGTP-driven Rango-importin beta dissociation; AID 540253; Biochemical FRET Rango-importin beta, RanGTP-induced dissociation; Potency, µM (series often up to 46.1 µM), inactives show at the highest dose activity change, negative = inhibition; 340,000 compounds, 0.071% hits; active means falling FRET ratio curve, often poorly fitted, with flat reads before Ran was added; inconclusive means other falling curves, or compound fluorescence or quenching; inactive means flat or rising ratio curve;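 note: potency is the fitted concentration of half-maximal effect; % of control where 0% means no effect; nearly all actives have a fitted effect of over 45% in size; -100% = wells without RanGTP and RCC1; the record marks most hits as doubtful in a second field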
#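 Two FRET readings bracket the reaction: one 5 min after compound meets Rango–importin beta, another 45 min after RanGTP-RCC1 (0.6 uM Ran, 0.2 uM RCC1, 2 mM GTP) is added. Only the second defines inhibition.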
# miR-21 FLuc – miR-21 reporter, rising signal. HeLa miR-21 FLuc reporter, luciferase, 48 h. Potency, µM (doses to about 38.3 µM), without a hit: at the highest dose reporter change, positive = more light. 340,000 tested, under 10 active. AID 2288; active = well fitted rising curve with a large enough effect; inconclusive = small, poorly fitted or top-dose-only effect; inactive = no such curve, though single readings can be large or run the other way;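 note: % of control where 0% means no effect; miR-21 action dims this reporter so a rising signal means less miR-21 action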
#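 Compounds were titrated across several concentrations (up to approximately 40 uM) and incubated 48 hours with HeLa miR-21-FLuc reporter cells (miR-21 target sequence downstream of FLuc, endogenous miR-21). Readout was firefly luciferase luminescence after lytic detection reagent.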
# Rango-impB inh – Rango-importin beta binding inhibition. Rango CFP/YFP FRET sensor + importin beta, 45 min. Potency, µM (series often up to 92.2 µM), without a hit: at the top dose inhibition of complex formation. 340,000 compounds, 0.031% hits; active = rising FRET ratio curve, often small or poorly fitted; inconclusive = mostly compound fluorescence or quenching in the first reads; inactive = flat curves in all reads;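 note: potency is the fitted concentration of half-maximal effect; 0% = DMSO wells and 100% = buffer wells lacking importin beta; nearly all actives have a fitted effect of over 15% in size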
# Target sequence (Q14974 whole entry, looked up): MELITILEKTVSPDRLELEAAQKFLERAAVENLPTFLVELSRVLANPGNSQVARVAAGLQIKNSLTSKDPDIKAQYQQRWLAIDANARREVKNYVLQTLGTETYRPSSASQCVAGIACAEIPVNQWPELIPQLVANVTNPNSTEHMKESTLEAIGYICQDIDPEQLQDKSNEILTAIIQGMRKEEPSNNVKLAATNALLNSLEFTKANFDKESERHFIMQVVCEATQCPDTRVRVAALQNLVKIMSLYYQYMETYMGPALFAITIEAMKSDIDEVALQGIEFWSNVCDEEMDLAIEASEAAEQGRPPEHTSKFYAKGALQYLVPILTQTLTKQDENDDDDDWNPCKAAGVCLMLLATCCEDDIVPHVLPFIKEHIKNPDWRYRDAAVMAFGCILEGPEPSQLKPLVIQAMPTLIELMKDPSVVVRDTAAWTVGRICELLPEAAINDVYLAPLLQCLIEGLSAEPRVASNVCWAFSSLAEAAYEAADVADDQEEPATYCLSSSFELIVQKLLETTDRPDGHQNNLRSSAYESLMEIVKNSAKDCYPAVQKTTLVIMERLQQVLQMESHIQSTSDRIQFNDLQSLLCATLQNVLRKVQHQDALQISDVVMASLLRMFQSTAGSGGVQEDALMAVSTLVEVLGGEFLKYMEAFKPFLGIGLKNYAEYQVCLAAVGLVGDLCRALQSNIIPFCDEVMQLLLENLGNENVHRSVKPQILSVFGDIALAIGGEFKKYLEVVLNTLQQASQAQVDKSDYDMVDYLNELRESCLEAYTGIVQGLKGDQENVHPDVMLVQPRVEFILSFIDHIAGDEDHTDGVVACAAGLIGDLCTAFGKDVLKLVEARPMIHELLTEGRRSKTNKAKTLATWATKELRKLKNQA
#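 FRET biosensor (snurportin 1 IBB flanked by EYFP and cerulean), 50 nM, with compound 5 min, then 0.125 microM importin beta in PBS, 1 mM DTT, 0.02% Tween-20, 0.1% BSA. CFP/YFP ratio read after 45 min at room temperature; pre-read flags interference.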
# * hit, by the source's call; ? = inconclusive; nt = no result given; & = joins results of further samples. Not all compounds are listed (hit frequency here may not be typical).
SMILES,GLA inh pH 4.5,Rango release inh,miR-21 FLuc,Rango-impB inh
Cn1nnnc1Sc1ncnc2scc(-c3cccc4c3sc3ccccc34)c12,nt,12%,nt,?
C=CCNC(=O)c1cccc(OC2CCN(CC(C)(C)C)CC2)c1,nt,-21%,-4%,?
O=C(COC(=O)CCS(=O)(=O)c1ccccc1)Nc1ccccc1,nt,2%,nt,-0.1%
O=C1NCCN1C(=O)c1ccccc1F,-5,-2%,2%,-1.4%
C=CCc1cccc(/C=C/c2cc(=O)c3ccccc3[nH]2)c1O,14,3%,-23%,-1.3%
CNC(=O)/C=C/c1cc(C(=O)c2ccc(Cl)cc2Cl)cn1C,nt,-4%,14%,1.9%
COC(=O)c1c(NC(=O)CSc2ncnc3ccccc23)sc(C)c1C,nt,13%,nt,0.1%
CCOC(=O)c1cc(-c2ccc(Cl)s2)nc2c1c(C)nn2C,11,nt,-4%,nt
CCn1c(Cc2ccccc2)nnc1SCC(=O)Nc1ccc(C)cc1,-3,0%,-4%,4.2%
CCCCOC(=O)CSCC(=O)Nc1cc(C)on1,-4,3%,-4%,2.9%
O=C(CN(CCc1ccccc1)Cc1ccccc1)Oc1ccccc1P(=O)(O)O,nt,-7%,2%,?
CSc1ccc(CN2CCCN(C)CC2)cc1,nt,-14%,-3%,5.8%
CCc1nn(CC(=O)Nc2cc(C)ccc2C)c(=N)s1,1,3%,2%,-2.5%
CCn1c(CNC(=O)c2ccccc2F)cc2ccccc21,nt,-1%,-34%,0.8%
O=C(CCl)N1CCN2C(=O)c3ccccc3C12c1ccc(Cl)cc1 (stereo unspecified),3,7%,?,3.4%

# The closing 6 compounds of the part above open the next one.
SMILES,GLA inh pH 4.5,Rango release inh,miR-21 FLuc,Rango-impB inh
CCCCOC(=O)CSCC(=O)Nc1cc(C)on1,-4,3%,-4%,2.9%
O=C(CN(CCc1ccccc1)Cc1ccccc1)Oc1ccccc1P(=O)(O)O,nt,-7%,2%,?
CSc1ccc(CN2CCCN(C)CC2)cc1,nt,-14%,-3%,5.8%
CCc1nn(CC(=O)Nc2cc(C)ccc2C)c(=N)s1,1,3%,2%,-2.5%
CCn1c(CNC(=O)c2ccccc2F)cc2ccccc21,nt,-1%,-34%,0.8%
O=C(CCl)N1CCN2C(=O)c3ccccc3C12c1ccc(Cl)cc1 (stereo unspecified),3,7%,?,3.4%
CCc1nnc(NC(=O)CCN(c2cc(C)cc(C)c2)S(=O)(=O)c2ccc(Cl)cc2)s1,-2,8%,0%,-5.2%
COC(=O)c1c(NC(=O)CCC(=O)O)sc2c1CCCCC2,-5,3%,-16%,-0.7%
O=C(COC(=O)C1=COCCO1)NC1CCCCC1,nt,5%,nt,2.9%
O=C1CC2(CCN(C(=O)C3CC(=O)N(c4ccccc4)C3)CC2)Oc2ccccc21 (stereo unspecified),nt,19%,nt,2.9%
O=C(NCCC1=CCCCC1)c1cc2ccccc2oc1=O,-3,2%,0%,1.4%
CCN(CC(=O)Nc1ccc(NC(C)=O)cc1)C(=O)/C=C/c1c(C)nn(-c2ccc(F)cc2)c1C,nt,-6%,2%,3.0%
CCCS(=O)(=O)N1CCC(C(=O)NCc2cccnc2)CC1,5,3%,-6%,-0.3%
COc1nc(N)c(S(=O)(=O)c2ccc(C)cc2)cc1C#N,-8,?,-3%,?
Cc1nnc(SCC(=O)N(C(C)C)C(C)C)[nH]c1=O,-2,1%,-2%,3.6%
Cc1sc(NC(=O)CSc2nnnn2C2CCCCC2)c(C#N)c1C,-1,1%,-5%,-2.1%
COc1ccc(-n2ncc3c(=O)n(CC(=O)N4CCCc5ccccc54)cnc32)cc1,-9,2%,-5%,7.2%
CCN(CC)CCNC(=O)/C(=C/c1cn(C)c2ccccc12)NC(=O)c1ccc(OC)c(OC)c1,-9,8%,4%,0.9%
Clc1ccc(C2[C@H]3CN(CC4CCCCC4)[C@H](c4ccccc4)C34CC2(c2ccccc2)C4)cn1 (stereo partly specified),-16&2,5%,-5%,0.2%
Cc1ccc(OCC(=O)NCCCNC(=O)c2ccccn2)cc1C,nt,-15%,0%,-1.7%
NC(=S)N/N=C/c1cc([N+](=O)[O-])ccc1OCCOc1ccccc1,4,-8%,-4%,?
COc1ccccc1C(CCNCc1ccccc1)c1ccc(OC(C)C)cc1 (stereo unspecified),nt,-6%,27%,0.8%
CC1CCCC(C)N1/N=C/c1cccc(Br)c1 (stereo unspecified),nt,-20%,-1%,5.6%
CN(c1ccccc1C(=O)NCc1ccccc1Cl)S(=O)(=O)c1ccccc1,nt,17%,0%,-0.8%
Cc1ccccc1[C@@H]1C(C#N)=C(N)S[C@H]1C(=O)c1ccccc1,-5,-9%,5%,-4.2%
COc1ccc(/C=C/C(=O)Nc2ccc(NC(C)=O)cc2)cc1S(=O)(=O)N1CCOCC1,3,9%,-18%,1.0%
CC1CCCCC1n1c(=S)[nH]c2ccccc2c1=O (stereo unspecified),-19,-20%,-2%,2.5%
O=C(C1CCC(=O)N1Cc1cccs1)N1CCOCC1 (stereo unspecified),-6,4%,-2%,0.1%
COc1ccc(N=Cc2ccc(N(CCC#N)CCC#N)cc2)cc1,nt,?,nt,2.1%
CC(C)C(NC(=O)CN(c1cccc(F)c1)S(C)(=O)=O)C(C)C,3,3%,-2%,0.6%
COc1ccc(S(=O)(=O)N2CCOC23CCN(S(=O)(=O)c2cc(C)ccc2C)CC3)cc1,nt,0%,nt,-0.7%
CN1CCN(c2ccc(CNS(=O)(=O)c3ccc(Cl)cc3)cc2)CC1,-2,18%,-1%,-0.5%
Cc1ccc(C2=NN(CC(=O)NCc3cccs3)C(=O)CC2)cc1,-2,-7%,0%,-4.9%
CCC/C(O)=C1\C(=O)CC(c2ccccc2)CC1=NCCc1c(C)[nH]c2ccccc12 (stereo unspecified),1,0%,20%,-3.2%
COc1ccc2sc(-c3ccc(S(C)(=O)=O)cc3)c(C#CCO)c2c1,nt,-7%,nt,-0.3%
CC(C)(C)OC(=O)c1c(N)n(CCCN2CCCC2=O)c2nc3ccccc3nc12,?,?,2%,?
Cc1cc(=O)[nH]c(SCc2cccc(Br)c2)n1,4,0%,-11%,2.6%
Cc1cccc(C(=O)NCC(c2cccs2)N2CCOCC2)c1 (stereo unspecified),nt,0%,nt,3.1%
COc1cc2c(cc1OC)C(COc1ccc([N+](=O)[O-])cc1)N(C(C)=O)CC2 (stereo unspecified),nt,-12%,11%,-0.8%
O=S(=O)(/N=C(\Nc1ccc(F)cc1)C(F)(F)F)c1ccccc1,-24,23%,0%,4.9%
Cc1ccc(C(=O)Nc2ccc3ccccc3c2)cc1,nt,-3%,15%,-1.1%
COc1ccc(CCC(=O)Nc2sc(C(=O)N(C)C)c(C)c2C#N)cc1,nt,37%,-4%,2.1%
O=C(NC1CCC(NC(=O)C2CCCO2)CC1)C1CCCO1 (stereo unspecified),-4,nt,-5%,nt
Cc1sc2nc(SCC(=O)NCc3ccco3)n(Cc3ccccc3)c(=O)c2c1C,7,-2%,1%,1.4%
Cc1cc(NC(=O)Cn2cnc3sc(C)c(C)c3c2=O)no1,nt,13%,nt,1.3%
COc1ccc(N2CC(C(=O)Nc3ccccc3C(=O)NCc3ccco3)CC2=O)cc1 (stereo unspecified),1,-3%,1%,-3.5%
CCOC(=O)C1CCCN(C(=O)CCCn2c(=O)c3cccn3c3cccnc32)C1 (stereo unspecified),nt,-2%,1%,-3.4%
COc1ccccc1COC(=O)c1cccc(S(=O)(=O)N2CCCC2)c1,nt,-5%,nt,0.9%
Cc1cc(=O)oc(C)c1C(=O)NCCC1=CCCCC1,-3,-6%,-6%,0.4%
COc1ccc(-c2csc(NCCc3nc4cc(Cl)c(Cl)cc4n3CCCO)n2)cc1,nt,-22%,nt,2.2%
COCC(=O)N1CCN(c2cccc(C(F)(F)F)c2)CC1,1,12%,-6%,3.8%
CCOc1ccc(CCNC(=O)COC(=O)/C=C/c2ccccc2)cc1OCC,nt,10%,nt,0.9%
O=S(=O)(NCCOCC(F)(F)F)c1ccc2oc3ccccc3c2c1,3,5%,5%,-1.3%
COc1cc2nc(Cl)nc(N3CCN(C)CC3)c2cc1OC,-5,nt,-7%,nt
COC(=O)c1ccc(COc2ccc(/C=C/C(=O)c3ccc(OC)c(CSCC(=O)O)c3)cc2OC)cc1,nt,-29%,-16%,?
Cc1noc(C)c1COc1ccc(C(=O)OCC(=O)Nc2ccc(S(N)(=O)=O)cc2)cc1,nt,7%,nt,-0.7%
Cc1ccccc1C(=O)NC(=S)NCC1CCCO1 (stereo unspecified),5,-16%,-10%,0.8%
O=C(CN1CCCCCC1)Nc1ccc(Br)cn1,nt,12%,-9%,-1.2%
COc1ccccc1OCCC(=O)OCC(=O)Nc1ncc(Cl)cc1Cl,1,?,5%,5.1%
c1ccc(-n2nnnc2Oc2ccc(-c3nnco3)cc2)cc1,-2,-4%,-1%,-1.5%
COC(=O)[C@H]1C[C@@H]1[C@H](NC(=O)c1cnccn1)c1ccccc1,2&-14,?,-1%,0.6%
CCN(CC)C(=O)/C(=C/c1cn(S(=O)(=O)N(C)C)c2ccccc12)NC(=O)c1ccc(OC)cc1,-5,6%,-1%,-0.3%
CC(OC(=O)CCc1nc2ccccc2c(=O)[nH]1)C(=O)Nc1ccc2c(c1)OCO2 (stereo unspecified),-1,1%,-1%,-1.7%
O=C(Nc1nnc(SCC(=O)N2CCCc3ccccc32)s1)c1ccccc1,-19,2%,-23%,-4.0%
CCCC(=O)NC(NC1CCS(=O)(=O)C1)C(Cl)(Cl)Cl (stereo unspecified),-3,1%,4%,3.0%
O=S(=O)(c1ccccc1)N1CCC(c2ccccc2)CC1,nt,31%,nt,4.1%

# (further entries)
SMILES,GLA inh pH 4.5,Rango release inh,miR-21 FLuc,Rango-impB inh
Cc1ccc(S(=O)(=O)N(C)C)cc1NC(=O)COc1ccccc1C(=O)Nc1ccccc1,nt,0%,nt,?
C=CCn1c(COc2ccc(F)cc2)nnc1SCC(=O)c1c[nH]c2c(CC)cccc12,1,-16%,-10%,1.1%
CCc1ccc(/C=N/NC(=O)C(=O)NCCCN2CCOCC2)cc1,-5,?,-1%,-0.4%
O=[N+]([O-])c1ccc(/C=N/Nc2nc(N3CCCCCC3)nc(N3CCCCCC3)n2)o1,-5,-16%,-4%,?
CCc1nn(C(C)C(=O)NC(C)CCc2ccco2)c(=O)c2cc3occc3n12 (stereo unspecified),6,3%,-9%,0.2%
Cc1cc(C)nc(SCC(=O)c2ccc(F)c(C)c2)n1,nt,2%,-31%,1.6%
Cc1csc(OCC(=O)Nc2ccc(C)c(C)c2)n1,5,-17%,-3%,-2.5%
Cc1ccccc1OCC(=O)OCC(=O)c1ccc(-c2ccccc2)cc1,-3,10%,-11%,-4.7%
CN(C(=O)c1ccccc1)c1ccc(OCC(=O)NC2CCS(=O)(=O)C2)cc1 (stereo unspecified),-18,11%,0%,0.2%
Cc1ccc(NC(=O)C2CC(=O)N/C(=N/N=C/c3ccco3)S2)cc1C (stereo unspecified),5,-8%,-5%,-2.3%
Cc1ccc(NC(=O)CN2CCN(S(=O)(=O)c3cccs3)CC2)cc1S(=O)(=O)N(C)C,-3,-22%,-1%,-1.9%
O=C1N(CC(=O)N2CCc3ccccc32)CCN1Cc1ccccc1Cl,-7,-1%,4%,-2.6%
CCC(C)N(C(=O)COc1ccc(NC(C)=O)cc1)C1CCS(=O)(=O)C1 (stereo unspecified),6,-17%,1%,-0.2%
CCCCn1c(SCC(=O)c2ccccc2)nc2c1c(=O)[nH]c(=O)n2C,-8,-2%,-5%,-1.2%
COc1ccc(-c2csc(N(CCCN3CCOCC3)C(=O)c3ccco3)n2)cc1,-2,14%,10%,1.5%
Clc1ccc(-c2[nH]ncc2N=Nc2ccccc2)cc1,nt,6%,-14%,1.1%
CSc1ccccc1C(=O)N(C)C(c1ccccc1)c1ccccc1,nt,?,11%,-2.4%
CSc1nnc(C)c(/C=C/Nc2ccc(F)cc2)n1,-5,?,-4%,?
